CapD inh: Bacillus anthracis CapD inhibitors, primary screen, biochemical, fluorescence intensity | z-score (concentration not given with the values) | CapD gamma-glutamyltranspeptidase (Bacillus anthracis Ames Ancestor) | hit rate 0.23% among 140,000 | AID 492967, 2010 | purified CapD enzyme, fluorescence intensity read-out; hits give low values; some hits fall short of the stated cut;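 active means z-score under -4 in either of two replicates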;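 further: stock transfer was 100 nL into about 40 µL; score is relative to mean and spread of the plate; one replicate is shown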
AID504770: growth inhibition of E. coli YBA685, primary screen, V. cholerae RctB inhibitors | E. coli YBA685 rctB-dependent plasmid, OD600 growth, 3 h; hits give low values | z-score (test concentration not listed) | hit rate 0.27% among 130,000 | AID 504770, 2011;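 active means z-score under -2 on both plates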;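 further: wells of about 30 µL received 100 nL stock; score is relative to mean and SD of the test wells; the first replicate is given; strong numbers were not always called active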
An asterisk follows results filed as active; · = no result given. A portion of the library (hit frequency here may not be typical).

structure,CapD inh,AID504770
CCCc1c(O)ccc2c1OC(C)(CCC(=O)OC)CC2=O (centres undefined),15.3,·
CC(=O)Nc1cccc(-c2cc(-c3ccc(Cl)cc3Cl)no2)c1,0.065,-1.15
c1cnc2c(Oc3ncnc4c3oc3ccccc34)cccc2c1,·,-0.55
O=C(CCN1C(=O)c2ccccc2S1(=O)=O)Nc1nc(-c2ccccc2)cs1,-0.325,0.2
CCCOCC1OC2OC3(CCCCC3)OC2C2OC3(CCCCC3)OC12 (centres undefined),0.355,·
Fc1cc(Br)ccc1N=Cc1ccncc1,-1,-0.7
COc1ccc2nc3oc(C(=O)Nc4ccc(C(C)C)cc4)cc3cc2c1,3.79,0.15
COC(CNC(=S)Nc1cccc(C(F)(F)F)c1)OC,0.21,0.3

(next part)
structure,CapD inh,AID504770
O=C(O)CSCc1nc2ccccc2[nH]1,·,-0.4
O=C1CN=C(c2ccc(Cl)cc2)c2oc3ccccc3c2N1,-0.38,·
O=C1NC(=O)C(=Cc2cccc3ccccc23)C(=O)N1,-0.17,1.9
CCc1ccc(N(C)S(=O)(=O)c2ccc3[nH]cc(C(=O)NCCCN4CCOCC4)c(=O)c3c2)cc1,0.42,·
Cc1nn(C2CCS(=O)(=O)C2)c(Cl)c1/C=C/C(=O)OCC(=O)c1ccc(Cl)s1 (centres undefined),·,-0.1
N#CCS(=O)(=O)c1ccccc1,0.15,·
O=P(c1ccccc1)(c1ccccc1)C(O)c1cccs1 (centres undefined),-0.29,-0.95
CCOc1ccc(Br)cc1S(N)(=O)=O,0.09,0.2

As a short view, some entries already given.
structure,CapD inh,AID504770
N#CCS(=O)(=O)c1ccccc1,0.15,·
O=P(c1ccccc1)(c1ccccc1)C(O)c1cccs1 (centres undefined),-0.29,-0.95
CCOc1ccc(Br)cc1S(N)(=O)=O,0.09,0.2

Additional entries
structure,CapD inh,AID504770
O=C1NC(=O)C(=CN2CCC(Cc3ccccc3)CC2)C(=O)N1,·,1.85
COC(CNC(=O)c1cc2c(s1)CSC2)OC,-0.16,-0.2
CCOC(=O)C1=C(O)/C(=C/c2ccc(OC)cc2)SC1=Nc1cccc(Cl)c1,0.03,·
CCOC(=O)c1sc2nc(CC(=O)OC)nc(NCC(OCC)OCC)c2c1C,83.9,·
N#CCCn1c(Sc2ncnc3sc4c(c23)CCCC4)nc2ccccc21,·,0.85
CCOC(=O)c1c(C)n(C)c2ccc(OC)c(S(=O)(=O)c3ccc(OC)cc3)c12,6.05,·
CC1CC(C)CN(C(=O)CSc2nc3ccccc3c(=O)n2C2CC2)C1 (centres undefined),0.24,0.45
O=C(O)c1cnc2sccn2c1=O,33.4,0.95

Sorted by formula weight (lowest first): 5 of the compounds above
structure,CapD inh,AID504770
O=C(O)c1cnc2sccn2c1=O,33.4,0.95
COC(CNC(=O)c1cc2c(s1)CSC2)OC,-0.16,-0.2
O=C1NC(=O)C(=CN2CCC(Cc3ccccc3)CC2)C(=O)N1,·,1.85
CC1CC(C)CN(C(=O)CSc2nc3ccccc3c(=O)n2C2CC2)C1 (centres undefined),0.24,0.45
CCOC(=O)c1c(C)n(C)c2ccc(OC)c(S(=O)(=O)c3ccc(OC)cc3)c12,6.05,·

(more compounds)
structure,CapD inh,AID504770
CCSc1nc2cc(S(=O)(=O)N(CC)CC)ccc2n1CC,·,-0.75
O=C(O)CCc1oc2cc(O)ccc2c(=O)c1-c1nc2ccccc2[nH]1,13.9,-1.25
C=CCn1c2ccccc2c2nn3cnnc3nc21,-0.72,-0.9
COc1ccccc1-c1nnc(-c2ccccc2O)o1,1.15,-0.35
O=C(Nc1ccccc1)Nc1cccc2ccccc12,15.6,0.6
O=C(COc1ccccc1)OC(C(=O)c1ccccc1)c1ccccc1 (centres undefined),-0.62,-0.65
Cc1ccc(Oc2cccc(/C=N/NC(=O)c3ccc4nonc4c3)c2)cc1,-1.29,·
Cc1cccc(N(C)C(=O)c2cccc3c2SCCC3=O)c1,-0.64,-0.4

Following part
structure,CapD inh,AID504770
Cc1ccccc1Nc1n[nH]c(=S)s1,·,-0.8
c1cnc(N2CCN(Cc3ccc4c(c3)OCO4)CC2)nc1,-0.2,·
c1ccc(-c2n[nH]c3ccccc23)cc1,-0.45,0.3
COc1nc(N2CCOCC2)nc(-n2nnc(C(C)=O)c2C)n1,0.8,·
CN(Cc1ccccc1)C(=O)CCc1nc2cccnc2n1-c1ccccc1,0.89,-0.35
O=CC12c3ccccc3C(c3ccccc31)C1C(=O)N(c3ccccc3F)C(=O)C12 (centres undefined),0.345,·
Cc1nn(-c2ccccc2)c(-n2cccc2)c1CN,0.15,0.85
CCOC(=O)c1sc2nc(SCC(=O)Nc3ccc(N(C)C)cc3)n(Cc3ccco3)c(=O)c2c1C,-0.435,·

Continuation:
structure,CapD inh,AID504770
CCN(CC)c1ccc(NC(=O)COc2ccccc2OC)cc1,·,-0.3
Cc1cc(N2CCN(c3ccccn3)CC2)n2cc(-c3ccccc3)nc2n1,-0.53,·
CN1CCC(N(C)C(=O)CNC(=O)c2ccc(Oc3ccccc3)cc2)CC1,·,-0.05
CC1=NN(C(=O)CSc2nc3ccccc3s2)C(C)(O)C1 (centres undefined),-0.17,0.4
O=C(NCCSc1nnnn1-c1ccccc1)C(c1ccccc1)c1ccccc1,0.29,-0.15
CSc1nnc(SC)n1CCNC(=O)c1c(Cl)cccc1Cl,-0.04,0.35
O=C(O)c1cccc(NC(=O)c2cccc(S(=O)(=O)N3CCCCC3)c2)c1,0.005,0.55
N#C/C(=C/c1ccc(N2CCCCC2)o1)C(=O)NCCc1c[nH]c2ccccc12,·,0.15

Next results:
structure,CapD inh,AID504770
Cc1cccc(-n2cc(-c3ccccc3)c3c(=O)[nH]cnc32)c1,-0.375,0.7
Brc1cccc(OCc2nnc3n2CCC3)c1,·,0.55
COc1cnc(SCc2ccc(Cl)cc2)nc1Oc1ccc(Cl)cc1,-0.4,·
O=S(=O)(Cc1ccc(Cl)cc1)c1snnc1-c1ccccc1,-0.145,·
COC(=O)c1cc2oc(C)cc2n1CC(=O)Cc1ccc(OC)cc1OC,-2.62,-0.45
O=C(CN1C(=O)/C(=C/c2ccccc2)SC1=S)Nc1cccnc1,-0.19,·
CSc1ccc(/C=C/C(=O)OCC(N)=O)cc1,·,-0.75
Cc1ccc(-c2nc(=S)c3c(n2CCCO)CCCC3)cc1,·,-0.95

(continued)
structure,CapD inh,AID504770
CSc1ncc(C(=O)NCCc2ccccc2)c(C)n1,0.675,-0.55
CCCCCCCCCCCCCCCCN1C=C/C(=C\C=C(\C#N)C(=O)OCC)c2ccccc21,0.755,·
CCOc1ccc(OCCOc2ccc(CN3CCN(CC(=O)N(C)C)CC3)cc2OCC)cc1,·,0.4
N#Cc1ccccc1NC(=O)CSc1nc(-c2ccccc2)c(-c2ccccc2)o1,·,0
CC(C)CN(CC(C)C)S(=O)(=O)c1ccc(C(=O)Nc2nnc(-c3ccccn3)o2)cc1,·,0.05
COc1ccccc1OCCn1c(=N)n(C)c2ccccc21,0.35,-0.45
CCOC(=O)c1sc2ccc(S(=O)(=O)N3CCOCC3)cc2c1N,0.47,-0.35
O=C1Nc2ccccc2SC1N1CCCCC1 (centres undefined),·,0.45

Further results:
structure,CapD inh,AID504770
O=C(CSc1ncnc2ccccc12)NCCc1ccccc1,-0.725,0.6
CC(C)C(=O)N(C)C1(c2ccccc2Cl)CCCCC1=O (centres undefined),-0.135,0.05
CCOC(=O)c1cc(=O)c2cc(I)ccc2o1,0.7,·
CN1/C(=C2/SC(=S)N(c3ccccc3)C2=O)Sc2ccccc21,39.1,0
Oc1c(C=NCc2ccccc2)[nH]c2ccc(Br)c(Cl)c12,-0.97,-0.15
COc1cc(OC)cc(C(=O)Nc2cc(C(=O)NCc3ccco3)ccc2N2CC3CC(C2)c2cccc(=O)n2C3)c1 (centres undefined),-0.275,0
Cc1nc2cc(-c3ccccc3)nn2c(C)c1CCC(=O)N1CCc2ccccc21,-0.275,1.25
C=CCN(CC=C)Cn1nc(Nc2ccccc2F)sc1=S,·,0.35

(next part)
Values run as follows: CapD inh | AID504770
COC(=O)C(C)Sc1nnc2c3ccccc3n(Cc3ccccc3)c2n1 (centres undefined)
 : -1.4 | 2.45
NS(=O)(=O)c1ccc(NNC(=O)/C=C/c2cccs2)cc1
 : · | -0.05
O=C(CSc1ccccc1C(=O)N(Cc1ccncc1)Cc1cccnc1)N1CCCC1
 : · | 1.25
Cc1nc2ccc(NC(=O)c3cccs3)cc2o1
 : -0.825 | 0.1
CC(NC(=O)CN1CCCc2ccccc21)c1ccccc1 (centres undefined)
 : · | 2.1
CCc1nc(SCC(=O)O)c(C#N)cc1C
 : · | -0.45
O=S(=O)(c1ccccc1)N1CCC(c2nc3ccccc3s2)CC1
 : -0.05 | ·
CCOc1ccc(Br)cc1S(=O)(=O)N(C)c1cccc(OC)n1
 : · | -1.25
CCCNC(=O)Cn1cnc2sc(C(=O)O)c(C)c2c1=O
 : -0.135 | ·
CC(C)(C)c1cc(C(=O)O)nn1-c1ccccc1
 : -0.085 | ·
C/C=C/C(=O)N1CCCC(c2nc(-c3cccc(OC)c3)no2)C1 (centres undefined)
 : · | -0.85
O=C(O)c1cccc(NS(=O)(=O)c2cccc3cccnc23)c1
 : -1.12 | -0.5
Cc1c(N(CC(=O)N/N=C/c2ccccn2)S(=O)(=O)c2ccccc2)c(=O)n(-c2ccccc2)n1C
 : -0.21 | ·
COC(=O)C1=C(N)OC2=C(C(=O)CC(c3ccccc3)C2)C1c1cccs1 (centres undefined)
 : -0.71 | ·
O=C(Cc1ccccc1)NCCc1nc2ccccc2[nH]1
 : -0.515 | -0.65
N#Cc1ccc(NC(=O)COC(=O)c2cccc(F)c2)cc1
 : · | -0.9
CC1CCCN(S(=O)(=O)c2ccc(C(=O)Nc3ccccc3-c3nc4ccccc4[nH]3)cc2)C1 (centres undefined)
 : -1.52 | -0.1
Cc1ccc(NC(=O)c2cccc(OC(=O)N(C)c3ccccc3)c2)cc1C
 : 0.38 | 1.25
O=C(CCc1c[nH]c2ccccc12)NNC(=O)c1ccc(Oc2ccccc2)cc1
 : -0.775 | ·
COCCN1C(=O)c2ccccc2C(C(=O)Nc2ccc(C(=O)OC)cc2)C1c1cccs1 (centres undefined)
 : -0.32 | 1.7
Cc1ccc(C(=O)Cn2cccn2)cc1
 : -0.035 | -0.1
O=C1OCC23C=CC(CC2)CC13 (centres undefined)
 : 0.525 | ·
CN(C)c1ccc(/C=C2\SC(=Nc3ccccc3)N(CCO)C2=O)cc1
 : · | -0.05
O=C(CCC1CCCC1)N1CCCC(c2nc(-c3ccc(F)cc3)no2)C1 (centres undefined)
 : · | -0.65
Cc1nnc(NCC(C)O)[nH]c1=O (centres undefined)
 : · | 0.2
Cn1c(C(=O)N2CCCC2)cc2sccc21
 : -0.075 | 0
N#C/C(=C\c1ccc(Cl)cc1)S(=O)(=O)Cc1ccco1
 : -0.165 | -0.1
CN(C)c1cccc(N2Cc3ccccc3C2=N)c1
 : -0.205 | -1.1
COC(=O)c1[nH]n(-c2ccccc2)c(=O)c1N=Nc1cc(C(F)(F)F)cc(C(F)(F)F)c1
 : -0.525 | ·
O=C(O)CSC(O)C(=O)c1ccccc1 (centres undefined)
 : · | -0.35

New compounds follow.
Values run as follows: CapD inh | AID504770
O=C(/C=C/c1ccco1)OC(C(=O)Nc1ccc(F)cc1)c1ccccc1 (centres undefined)
 : · | -0.2
CS(=O)(=O)c1sc(C(=O)Nc2ccccc2Cl)c2c1C=CCC2
 : -0.08 | -0.35
Cc1ccc(NC(=O)c2ccco2)c(C(=O)c2ccccc2)c1
 : -0.38 | 2.2
O=C(O)CCC(=O)NCc1ccccc1
 : 0.09 | -0.85
CCOC(=O)N1CCC(NC(=O)c2ccc(CNS(=O)(=O)c3ccc(F)cc3)cc2)CC1
 : 0.68 | 0.05
O=C(Cc1ccccc1)NCC1OCCc2ccccc21 (centres undefined)
 : 0.14 | 0.2
O=S(=O)(NCC1(N2CCCCC2)CCCCC1)c1cccs1
 : · | 0.45
CCN(Cc1cc(OC)c(OC)c(OC)c1)S(=O)(=O)c1cc(Cl)c(Cl)cc1Cl
 : 0.105 | ·
O=C1CC2(CCCc3ccccc32)C(=O)N1CN1CCOCC1 (centres undefined)
 : 0.375 | -0.6
CCn1cnc2scc(-c3ccccc3)c2c1=O
 : -0.53 | 2.15
COc1ccc(C(=O)Oc2cc(/C=c3\sc4nc5ccccc5n4c3=O)ccc2OC)cc1
 : 0.32 | ·
Cc1cc(C)c(C)c(S(=O)(=O)NCC(C)O)c1C (centres undefined)
 : 0.605 | ·
Cc1ccc(NC(=O)CC2SC(=Nc3ccccc3)N(c3ccccc3)C2=O)cc1 (centres undefined)
 : -1.35 | ·
Cc1ccc(-c2nnc(NCc3ccccc3)c3ccccc23)cc1S(=O)(=O)NC(C)(C)C
 : -0.54 | ·
C=CCSC1=C(C#N)C2(CCCC2)C(C#N)C(=O)N1 (centres undefined)
 : -0.03 | 0.35
COC(=O)c1c(-c2ccc(C)c(C)c2)csc1NC(=O)C1CCCCC1C(=O)O (centres undefined)
 : -0.06 | -1.65
CC(=O)c1ccc(-c2cc(C(F)(F)F)ccc2Cl)o1
 : 0.165 | ·
CCn1c2ccccc2n2cc(-c3ccccc3)nc12
 : 3.54 | -0.95
Cc1nc2ccc(NC(=O)COCC(=O)O)cc2nc1C
 : 86.7 | 1
CCOC(=O)C1=NNC2C(=O)N(c3cccc(Cl)c3C)C(=O)C12 (centres undefined)
 : -0.205 | -0.3
c1ccc(-c2csc(NCc3ccco3)n2)cc1
 : 0.02 | 0.55
CCOC(=O)Cn1c(=O)n(CCc2ccccc2)c(=O)c2ccccc21
 : 0.22 | 0
CC1(C)CC(=O)C(C=Nc2ccc(F)cc2F)=C(O)C1
 : -1.02 | ·
NNC(=O)CSCc1ccc(Cl)cc1
 : 0.165 | -0.2
COc1ccccc1NC(=O)c1oc2ccc3c(c2c1C)C(=O)CC(C)(C)O3
 : 6.46 | 1.05

Source: PubChem BioAssay
